Screening data (PubChem BioAssay)
Vaccinia Venus – inhibitors of vaccinia virus (Venus reporter); Potency, µM (top dose mostly 36.5 µM), without a hit: top-dose activity change, negative = inhibition, most hits filed as inhibitors; Vaccinia virus Venus reporter expression, fluorescence; hit rate 0.46% among 330,000; AID 720580; active means well fitted inhibition curve with a large enough effect; inconclusive means small, poorly fitted or top-dose-only effect; inactive means no such curve, though single readings can be large or run the other way; tested in A549 cells; also: nearly all actives have a fitted effect of over 30% in size; inactives centre near -10
Vaccinia mCherry – inhibitors of vaccinia virus infection (mCherry reporter signal). Vaccinia virus mCherry reporter infection, fluorescence; about a quarter of the inactives have no number. Potency, µM (doses to about 36.5 µM), for the others: at the top dose activity change, negative = inhibition, actives largely listed as inhibitors. hit rate 0.63% among 310,000; active = well fitted inhibition curve with a large enough effect; inconclusive = small, poorly fitted or top-dose-only effect; inactive = no such curve, though single readings can be large or run the other way; tested in A549 cells; also: nearly all actives have a fitted effect of over 35% in size; inactives centre near -10
Starred values were filed as active, the others as inactive; i = inactive; ? = inconclusive; . = not tested or not shown; & = joins results of further samples; [ ] = remark or other dose. % is scaled to controls: 0 for no effect and ±100 for the full control effect; potency is read from the fitted curve at half-maximal effect.

canonical_smiles | Vaccinia Venus | Vaccinia mCherry
O=C(CCC1N=C2c3ccccc3N=C(SCc3ccc(Cl)cc3)N2C1=O)NCc1cccs1 (centres undefined) | -23% | -27%
Cc1ccc(-c2c3c(=O)n(C)c(=O)n(C)c3cn2-c2ccccc2O)cc1 | -24% | ?
COC(=O)CCC(C)C1CCC2C3C(O)C[C@@H]4CC(O)CC[C@@]4(C)C3CC(O)[C@]12C (some centres undefined) | -9% | -9%
Cc1ccc(NC2c3ncccc3C(=O)N2C2CCCCC2)cc1 (centres undefined) | -5% | i
COC(=O)c1c[nH]n2c(=O)cc(CCl)nc12 | -2% | -4%
O=C(CNc1cc(S(=O)(=O)N2CCOCC2)ccc1N1CCCC1)Nc1ccc(Cl)cc1F | -26% | ?
CC1(C)CC(=O)C2=C(C1)OC(/N=C/N1CCOCC1)=C(C#N)C2c1ccccc1 (centres undefined) | -18% | -26%
COc1cc(C=C2NC(=O)NC2=O)ccc1O | -16% | -16%
COc1ccc2c(C)cc(C)nc2n1 | -3% | 8%
Cc1cc2oc(=O)cc(-c3ccccc3)c2c(C)c1-c1ccc(CO)cc1 | -11% | -8%
CC(Oc1cccc(Br)c1)C(=O)N1CCCN(C)CC1 (centres undefined) | -13% | i
CCOc1ccccc1OCC(=O)Nc1ccc(N2CCOCC2)cc1N1CCOCC1 | -19% | -1%
NC(=O)NC(=O)COC(=O)CN1C(=O)C2CCCCC2C1=O (centres undefined) | -14% | -12%
Cc1c(NC(=O)COC(=O)Cc2ccc(F)cc2)c(=O)n(-c2ccccc2)n1C | 4% | -11%
COc1cc(=O)n2c(c1C(=O)N(C)Cc1nccs1)CCN(Cc1ccc(F)c(F)c1)CC2 | -10% | i
O=C(CCc1ccccc1)C(=O)N1CCCC(C(=O)c2cccc(Cl)c2)C1 (centres undefined) | -7% | i
Cc1ccc(NC(=O)Cn2c(=O)n(Cc3nc(-c4ccccc4)no3)c(=O)c3ccccc32)cc1C | -15% | -16%
O=C(CC1SCCNC1=O)Nc1ccc(F)c(Cl)c1 (centres undefined) | 4% | i
CN1CC(=O)Nc2ccc(F)cc2C1=O | -4% | -10%
COc1ccc(NC(=O)c2cn(CC(C)C)c(=O)c3cc(OC)c(OC)cc23)cc1Cl | -15% | -20%
CNC(=S)/N=C/NOCc1ccc(Cl)cc1Cl | -13% | -25%
O=C(CN1CCCC1)Nc1ccc(S(=O)(=O)N2CCCCC2)cc1 | -2% | -10%
CCc1ccc(NC(=O)CSc2nnc(-c3ccc(N)cc3)n2C)cc1 | -16% | -10%
O=C(CCSc1ccc(F)cc1)Nc1ccc(-n2cnnn2)cc1 | ? | -16%
O=[N+]([O-])c1ccc(COc2ccccc2CN2CCCCC2)cc1 | -8% | ?
O=C(Cn1cncn1)N/N=C/c1c2ccccc2cc2ccccc12 | 1% | .
CC1(C)C([N+](=O)[O-])C(c2ccc(O)cc2)NC(c2ccc(O)cc2)C1[N+](=O)[O-] (centres undefined) | -12% | -1%
CCN1C(=NCCc2cccs2)N[C@@H](c2cccs2)C(C(=O)OC)=C1C | -9% | i
Cc1ccnc(NC(=O)CNC(=O)c2ccco2)c1 | -10% | -12%
O=C(Nc1nnc(S(=O)(=O)N2CCOCC2)s1)c1ccc(F)cc1 | -5%&-12% | -7%
Cc1ccc(CCNC(=O)c2cc(-c3ccc(Cl)cc3)n[nH]2)cc1 | 2% | -8%
CCOc1ccc(CCNC(=O)CCc2nc3ccccc3[nH]2)cc1OCC | -5% | -6%
CCCOc1ccc(CN(C)c2ncnc(N)n2)cc1 | -20% | -25%
Cc1ccc(NCN2C(=O)C3C4C=CC(C4)C3C2=O)cc1 (centres undefined) | 4% | -7%
CC1=NNC(=O)C1CC(=O)N/N=C/c1ccncc1 (centres undefined) | -6% | -4%
CC(=O)c1nn(-c2ccc(Br)cc2)cc1C(=O)c1ccccc1 | 6% | i
CCCCC[C@@H]1C=C(C(=O)O)[C@H](c2ccc(F)cc2)N1S(=O)(=O)c1ccc(C)cc1 | -1% | -2%
COc1ccc(CCNC(=O)CCCn2c(=O)c3cccn3c3cccnc32)cc1OC | -14% | -19%
COc1ccc(/C=C/C(=O)Nc2cc(C)nn2-c2nc3ccccc3[nH]2)cc1 | -14% | -11%
Cc1ccc(-n2ncc3c(=O)[nH]c(SCC(=O)N4CCOCC4)nc32)cc1 | -13% | -22%
COc1cccc(-c2nc(-c3ccc(NC(=O)c4cccs4)cc3)no2)c1 | -20% | -1%
C=CCn1c(N)cc(=O)nc1SC(C)C(=O)Nc1cccc2ccccc12 (centres undefined) | -17% | .
Cc1ccc(N(CCC(=O)O)S(=O)(=O)c2cccc(C(F)(F)F)c2)cc1 | -4% | -1%
Cn1c(=O)c2c(=O)cc(NNC(=O)C(C)(C)C)[nH]c2n(C)c1=O | -6% | .
Cc1cccc(OCc2nnc(SC(C)C(=O)Nc3ccc(N4CCOCC4)cc3)o2)c1 (centres undefined) | -15% | -5%
Cc1ccc(OCCOCCNC(C)(C)C)c([N+](=O)[O-])c1 | -2% | -12%
O=C(c1cccs1)N1CCN(Cc2cn[nH]c2-c2ccc(F)cc2F)CC1 | -21% | -25%
CCn1c(=O)c2cc(C(=O)NCCN3CCOCC3)sc2c2ccccc21 | -14% | i
CC(NC(=O)CNC(=O)c1ccccc1Br)c1cccs1 (centres undefined) | -7% | -26%
CC1CCCCN1S(=O)(=O)c1ccc(NC(=O)c2cccs2)cc1 (centres undefined) | ? | -5%
O=C(CN1C(=O)NC2(CCCC2)C1=O)Nc1ccc(S(=O)(=O)N2CCOCC2)cc1 | 2% | 3%
O=C(Nc1ccc(Br)c(Br)c1)C1CCCO1 (centres undefined) | -5%[7.34 µM] | i[7.34 µM]
NC(N)=N/N=C/c1ccc(OCc2ccc(Cl)cc2)cc1 | ? | -29%
CCCCNC(=O)CCc1c(C)nc2c(c(C)nn2-c2ccccc2)c1C | -10% | -14%
O=C(N/N=C/c1c(O)n(Cc2ccccc2)c(=O)c2ccccc12)c1cccnc1 | -9% | -14%
COc1cc(Cl)ccc1OCc1cc(C(=O)NC2CCc3ccccc32)no1 (centres undefined) | 4% | -18%
Cc1ccc(/C=C2/SC(=S)N(CCC(=O)NCCCN3CCOCC3)C2=O)cc1 | ? | ?
N#C/C(=C\c1ccco1)c1nc2ccccc2s1 | 15% | 3%
CCn1c(=O)c(C(=O)Nc2cccnc2)c(O)c2ccccc21 | -3% | ?
COc1cccc(C(=O)NC(=S)Nn2cnnc2)c1OC | -2% | -2%

Some of the entries so far, with each value named.
> CNC(=S)/N=C/NOCc1ccc(Cl)cc1Cl
  Vaccinia Venus: -13%
  Vaccinia mCherry: -25%
> COc1cccc(-c2nc(-c3ccc(NC(=O)c4cccs4)cc3)no2)c1
  Vaccinia Venus: -20%
  Vaccinia mCherry: -1%

More structures
canonical_smiles | Vaccinia Venus | Vaccinia mCherry
CN1C(=O)c2ccc(C(=O)NC3CCCCC3)cc2C1=O | 0% | -15%
COc1ccc(N(CC(=O)NCc2ccc(F)cc2)C(=O)Cn2nnc(-c3ccc(C)o3)n2)cc1OC | 9% | -2%
c1cc(-c2cn(C[C@H]3CC[C@@H]([C@@H]4CC[C@H](Cn5cc(-c6ccsc6)nn5)O4)O3)nn2)cs1 | -17% | -10%
CNc1nc(-c2c[nH]c3ccccc23)cs1 | 59%[activator] | 87%[activator]
COc1ccccc1NS(=O)(=O)c1ccc2oc(SCc3ccc(C#N)cc3)nc2c1 | ? | ?
CCOc1ncccc1C(=O)Nc1nc(C(C)(C)C)cs1 | -29% | i
COc1ccccc1CC(=O)Nc1ccc(S(=O)(=O)N2CCCCC2)cc1 | -15% | -4%
Cc1nnc(SCC(=O)NC2CCS(=O)(=O)C2)n1-c1ccccc1 (centres undefined) | -1% | i
c1cnc2nc(CSc3ncn[nH]3)cn2c1 | -7% | i
COC(=O)COc1ccc2oc(=O)cc(-c3cc4cccc(OC)c4o3)c2c1 | -7% | -17%
COc1ccc(NC(=O)CN2C(=O)NC3(CC(C)CC(C)(C)C3)C2=O)cc1S(=O)(=O)N1CCCCC1 (centres undefined) | -28% | -11%
CCCNC(=O)N1CCCC(C(=O)c2cccc(Cl)c2)C1 (centres undefined) | -25% | -8%
Cc1nccn1CCCN1C(=O)CNC1=S | 26% | i
O=C(COC(=O)c1ccc2c(c1)OCO2)Nc1nc(-c2ccccc2)cs1 | -3% | -28%
COc1ccc(OCc2nc(-c3ccc(-n4cccc4)cc3)no2)cc1 | -8% | 2%
O=C(COc1ncnc2scc(-c3ccccc3)c12)NC1CCCc2ccccc21 (centres undefined) | -11% | i
Cc1cccc(C(=O)Nc2ccc(OCc3cc(=O)n4c5c(sc4n3)CCCC5)cc2)c1 | -1% | 6%
Cc1nnc(SCC(=O)NC(=O)NCc2ccco2)s1 | -3% | i
O=S(=O)(Nc1cc(S(=O)(=O)N2CCOCC2)ccc1N1CCCC1)c1cccs1 | -9% | -3%
C/C(=N\Nc1cccc(Cl)c1)c1ccc(-n2ccnc2)cc1 | -22% | -3%
O=C(C1CCC1)N1CCc2cc(S(=O)(=O)NCc3ccco3)ccc21 | ? | -22%
CC(C)(C)c1ccc(C(O)c2ncc(-c3ccccc3)[nH]2)cc1 (centres undefined) | -2% | 6%
CCCn1c(CNC(=O)c2ccccc2)nc2ccccc21 | -6% | ?
CCCCCC#CCC#CCC#CCC#CCCCC(=O)O | -9%[3.33 µM] | -18%[3.33 µM]
CCSC(=Nc1ccccc1)N1CCOCC1 | -9% | -4%
CC[C@H](C)[C@H]1CNC(=S)N1CC1CCN(CC2CCC(C)CC2)CC1 (some centres undefined) | -16% | ?
CC1CCN(S(=O)(=O)c2ccc(NC(=O)Cc3ccccc3)cc2)CC1 | -13% | -1%
CC(=O)Nc1cc(-c2cccc(C(=O)NCCO)c2)cn2c(-c3cccc(C(F)(F)F)c3)cnc12 | ? | ?
COc1ccc(C2/C=C\CN(C(=O)OCC3c4ccccc4-c4ccccc43)CC(=O)N2Cc2cccc(F)c2)cc1 (centres undefined) | 0% | i
N/C(=N\NS(=O)(=O)c1ccccc1Cl)c1ccccn1 | 4% | -18%

Grouped by structure: those above with a COOH group.
canonical_smiles | Vaccinia Venus | Vaccinia mCherry
CCCCC[C@@H]1C=C(C(=O)O)[C@H](c2ccc(F)cc2)N1S(=O)(=O)c1ccc(C)cc1 | -1% | -2%
Cc1ccc(N(CCC(=O)O)S(=O)(=O)c2cccc(C(F)(F)F)c2)cc1 | -4% | -1%
CCCCCC#CCC#CCC#CCC#CCCCC(=O)O | -9%[3.33 µM] | -18%[3.33 µM]

Next structures:
canonical_smiles | Vaccinia Venus | Vaccinia mCherry
CC(C)(C)CC(C)(C)c1ccc(OCC(=O)Nc2ccc(S(=O)(=O)Nc3ncccn3)cc2)cc1 | -4% | -13%
COc1ccc(NC(=O)C[C@H]2C(=O)N(C3CCCCC3)C[C@@H]2CSC)cc1 | -10% | i
Cc1ccc(-c2cc(C(=O)Nc3ccc(SC(F)F)cc3)no2)cc1F | -6% | -6%
CCOc1ccc(C(=O)CCN2CCCCC2)cc1 | ? | .
COC(=O)c1ccccc1NC(=O)C12CCC(C)(C(=O)O1)C2(C)C (centres undefined) | 0% | -13%
Cn1cccc1/C=C(/C#N)C(N)=S | -9% | -6%
Cc1cc(C(=O)NC2CCCC2)on1 | 0% | -19%
O=C(N/N=C/c1cccc([N+](=O)[O-])c1)c1ccc(Br)cc1 | -8% | -3%
CCCN(c1ccc(OCC)cc1)c1ncnc2nc[nH]c12 | -23% | -6%
COc1cc(OC)c(S(=O)(=O)N2CCN(C(=O)c3ccco3)CC2)cc1NC(C)=O | -11% | -16%
COc1ccc(C(=O)Nc2nc3n(n2)C(c2ccc(F)cc2)C=C(c2ccc(Cl)cc2)N3)cc1 (centres undefined) | -22% | -17%
COC(=O)c1cccc(Nc2nc3ccccc3nc2C)c1 | -28% | .
CCc1ccc(S(=O)(=O)c2nnn3c2nc(N2CCN(CC)CC2)c2sccc23)cc1 | -30% | -21%
Cc1ccc2c(c1)C(=O)C(=O)N2Cc1ccc(Cl)cc1 | -15% | i
O=C(CSc1nnnn1C1CCCCC1)NCc1ccc2c(c1)OCO2 | -6% | i
Cc1ccnc(NS(=O)(=O)c2ccc(NC(=O)c3cc(=O)c4ccc(C)c(C)c4o3)cc2)n1 | -5% | -2%
N#CCN=C(c1ccccc1)c1ccccc1 | 1% | i
CCCCCn1c(SCCC(C)C)nc2c1c(=O)[nH]c(=O)n2C | ? | -13%
CC1CN(C(=O)N2CCC(C(=O)NCc3ccco3)CC2)c2ccccc2O1 (centres undefined) | 2% | -4%
COc1cc2c(cc1OC)C1(CCCC1)C(N)=C2C#N | ? | .
COc1ccc2c(c1)CCc1cnc(-n3ncc(C(=O)N(C)CCc4ccccn4)c3C)nc1-2 | -30% | -10%
CCOc1cc(C(=O)Nc2cccc(OCC(=O)N3CCOCC3)c2)cc(OCC)c1OCC | -14% | i
CCc1nnc(NC(=O)c2ccc(Cl)c(S(=O)(=O)N3CCc4ccccc43)c2)s1 | -19% | .
CN1CC[C@H](CN2c3ccccc3Sc3ccccc32)C1 | ? | ?
